KCNQ2 enhance: enhances the rat KCNQ2 potassium channel; CHO-K1 KCNQ2, FluxOR thallium flux fluorescence; stronger effect = higher value; B-score at 10 µM; hit rate 0.54% among 310,000; AID 2239;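 active means fluorescence ratio B-score at least 3 SD of library B-scores, with initial fluorescence B-score within 3 SD, cut at about 5.3 in these data; same plate scores as AID 2156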;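 further: B-score of peak minus minimum over baseline fluorescence ratio after K+ and Tl+ stimulus; positive B-score means potentiation of KCNQ2 with more thallium influx and brighter signal; only the inactives scoring about 0 or higher are listed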
Target sequence (O88943 whole entry, looked up): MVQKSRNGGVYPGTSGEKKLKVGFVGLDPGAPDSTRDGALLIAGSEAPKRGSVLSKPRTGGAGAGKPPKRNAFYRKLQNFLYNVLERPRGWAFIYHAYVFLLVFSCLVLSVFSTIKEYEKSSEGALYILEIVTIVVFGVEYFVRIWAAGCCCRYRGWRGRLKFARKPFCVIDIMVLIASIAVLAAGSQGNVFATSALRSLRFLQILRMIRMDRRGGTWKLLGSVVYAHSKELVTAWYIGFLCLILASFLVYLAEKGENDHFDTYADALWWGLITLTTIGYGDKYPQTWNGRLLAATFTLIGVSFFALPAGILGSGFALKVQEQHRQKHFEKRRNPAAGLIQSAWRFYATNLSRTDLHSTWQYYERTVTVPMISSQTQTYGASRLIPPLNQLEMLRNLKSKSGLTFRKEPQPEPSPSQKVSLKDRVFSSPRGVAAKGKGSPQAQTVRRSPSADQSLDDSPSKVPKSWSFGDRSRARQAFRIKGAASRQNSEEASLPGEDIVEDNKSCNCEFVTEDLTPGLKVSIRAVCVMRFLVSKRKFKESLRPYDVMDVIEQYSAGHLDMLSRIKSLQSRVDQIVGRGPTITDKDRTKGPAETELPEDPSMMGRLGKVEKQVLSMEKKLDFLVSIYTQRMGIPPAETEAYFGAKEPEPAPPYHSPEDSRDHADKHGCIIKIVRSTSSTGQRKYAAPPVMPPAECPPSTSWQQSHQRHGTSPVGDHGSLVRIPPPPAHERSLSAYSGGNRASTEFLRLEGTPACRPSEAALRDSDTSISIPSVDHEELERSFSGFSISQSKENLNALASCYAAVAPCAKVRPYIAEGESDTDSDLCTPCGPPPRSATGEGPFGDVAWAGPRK
KCNQ2 enhance baseline: second read-out of KCNQ2 enhance, no call of its own (marks repeat the call); B-score; compound at 10 µM; measured here: initial fluorescence intensity artifact check;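 brightness before thallium and not channel activity; 0 = typical well and far values either way flag optical interference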
* hit, by the source's call. Only part of the results is shown; count on the stated rates, not on these rows.

SMILES | KCNQ2 enhance | KCNQ2 enhance baseline
Cc1c(NC(=O)CSc2cccc3cccnc23)c(=O)n(-c2ccccc2)n1C | 0.11 | -0.53
C=CCNC(=S)/N=c1\sccn1C | 0.67 | 2.3
Oc1csc(Cc2nc(-c3ccc4ccccc4c3)cs2)n1 | 0.1 | 0.02
COCCNCc1nc2sc(C)c(-c3ccccc3)c2c(=O)[nH]1 | 4.1 | -1.2
COc1ccc(/C(C)=N/NS(=O)(=O)c2cc(C)ccc2C)c(OC)c1 | 3 | 0.19
CC(C)(C)NC(=O)c1cc(F)c(F)cc1Cl | 0.18 | 0.14
CCOC(=O)C1CCN(CC(=O)Nc2c(C(=O)OC)[nH]c3ccccc23)CC1 | 2.6 | -1.1
CCOc1ccc(NC(=O)CN(C)C(=O)c2ccc(N3CCOCC3)c([N+](=O)[O-])c2)cc1OCC | 0.35 | -0.97
CCOc1ccc(/C=N/NC(=O)CNC(=O)c2ccc(S(=O)(=O)N3CCOCC3)cc2)cc1 | 1.2 | -1.4
CCN1C(=O)/C(=C\N2CCCCCC2)SC1=S | 0.96 | -1.3
COc1ccc(N(CC(=O)O)S(=O)(=O)c2ccc(OC)c(OC)c2)cc1 | 0.17 | 1.1
CCOCC(=O)N1CCN(c2ccccc2OC)CC1 | 1.8 | -1.2
Cc1ccc(C)c(Cn2c(=O)n(C)c(=O)c3sccc32)c1 | 0.56 | 0.84
O=C(Cc1cccc2ccccc12)N/N=C/c1ccc(O)c([N+](=O)[O-])c1 | 0.02 | -0.07
O=C(Nc1ccc(O)c2c(=O)cc(-c3ccccc3Cl)oc12)c1cccc(Cl)c1 | 0.43 | 0.48
CCCS(=O)(=O)n1nc(-c2ccc(OC)cc2)cc1N | 0.04 | 1.4
Cc1ccc2[nH]c(CN3CCN(C)C(CCO)C3)c(C)c2c1 (centres undefined) | 0.6 | 0.83
COc1ccc(C(=O)NC2CC3CCCC(C2)N3Cc2ccccc2)c(OC)c1 (centres undefined) | 1.5 | 0.69
Nn1c(Cc2cccc3ccccc23)nnc1SCc1ccc(Cl)c(Cl)c1 | 0.07 | -0.01
O=C(COc1ccccc1[N+](=O)[O-])N/N=C/c1ccccn1 | 1.9 | 1.1
COc1ccc(Cl)cc1NC(=O)c1noc2c1CCCC2 | 2.1 | -1.6
CCCCn1c(N)c(N(CC(C)C)C(=O)CSCc2ccc(Cl)c(Cl)c2)c(=O)[nH]c1=O | 1.4 | 0.22
CCOC(=O)/C(=C/c1ccco1)NC(=O)c1ccc(Br)o1 | 1.5 | 0.1
CC1(C)CC(=O)C2=C(C1)NC(=O)NC2c1ccccc1 (centres undefined) | 0.66 | 0.17
COc1ccc(OCCNS(=O)(=O)c2ccc3oc4ccccc4c3c2)cc1 | 0.01 | 0.66

Later entries
SMILES | KCNQ2 enhance | KCNQ2 enhance baseline
C(=N\c1nc2ccccc2n1CCN1CCOCC1)/c1cccs1 | 2.3 | -0.88
O=S(=O)(c1ccc(S(=O)(=O)n2cnc3ccccc32)cc1)N1CCCCCC1 | 0.49 | 1.6
CC(C)CC1=NN(C(=O)c2cccnc2)C(O)(C(F)(F)F)C1 (centres undefined) | 0.52 | -1.4
O=C(NNC(=O)c1ccc(Cn2cccn2)o1)NC12CC3CC(CC(C3)C1)C2 | 2 | 0.56
O=C(COC(=O)CNC(=O)c1ccccc1)Nc1ccc2c(c1)OCO2 | 0.09 | 0.1
Cc1ccc(-n2ncc3c(N4CCC5(CC4)OCCO5)ncnc32)c(C)c1 | 0.06 | -0.67
CC1CN(C(C)C(=O)NC(c2ccccc2)c2ccccc2)CC(C)O1 (centres undefined) | 0.19 | -0.83
C[N+]1(CC(=O)Nc2ccccc2Cl)CCN(C(=O)c2cccs2)CC1 | 0.51 | -0.24
CCn1cc(CN2CCC(n3nccc3NC(=O)c3ccccc3C)CC2)cn1 | 0.17 | 1.3
O=C(CCNS(=O)(=O)c1ccccc1)N1CCC(Cc2ccccc2)CC1 | 10* | -1.3*
Cc1ccc2nsnc2c1N | 1.2 | 0.08
COc1ccccc1N(C(=O)CN1C(=O)c2ccccc2S1(=O)=O)C(C(=O)NCC1CCCO1)c1ccc(F)cc1 (centres undefined) | 0.2 | 0.79
COc1cccc(NS(=O)(=O)c2csc(C(N)=O)c2)c1 | 1.1 | -0.61
O=c1c(-c2n[nH]c(=S)n2-c2ccccc2)cccn1Cc1cccc(Cl)c1 | 1.1 | -1.1
CNC(=O)Cn1ncc2c(C)n(Cc3ccc(C)cc3)c(C)c2c1=O | 0.02 | 0.03
COc1cc2c(cc1OC)/C(=C/C(=O)c1ccc(NC(C)=O)cc1)NCC2 | 1.4 | -0.66
N#Cc1cc(NCC2CCCO2)c([N+](=O)[O-])cc1C#N (centres undefined) | 1.6 | 0.83
CCCc1nc2ccccc2c(=O)n1N | 1.3 | 2.2
CCCCOC(=O)Nc1ccc(S(=O)(=O)Nc2ncccn2)cc1 | 1.3 | -0.48
COc1ccc(NC(=O)CCCn2c(=O)c3sccc3n(Cc3ccccc3)c2=O)cc1 | 0.76 | -0.31
Cc1nnc(SCC(=O)NC2CCCCCC2)n1C(C)C | 0.79 | 0.68
CCN(CC)CCn1c2ccccc2c2cnc(N=CN(C)C)c(C#N)c21 | 0.33 | 0.77
COc1cc(CNC(=O)C2CCC(=O)N(C3CCCCCC3)C2)cc(OC)c1 (centres undefined) | 0.57 | -0.1
CCn1c(=O)c(C(=O)CN(C)Cc2ccc(F)cc2)c(N)n(Cc2ccccc2)c1=O | 0.58 | 1.4
COCC(=O)N(Cc1cc2cc(C)ccc2[nH]c1=O)c1cccc(C)c1C | 0.92 | -2.5

Part of the list above, as labelled records:
SMILES: O=S(=O)(c1ccc(S(=O)(=O)n2cnc3ccccc32)cc1)N1CCCCCC1
  KCNQ2 enhance = 0.49; KCNQ2 enhance baseline = 1.6
SMILES: CC(C)CC1=NN(C(=O)c2cccnc2)C(O)(C(F)(F)F)C1 (centres undefined)
  KCNQ2 enhance = 0.52; KCNQ2 enhance baseline = -1.4
SMILES: O=C(NNC(=O)c1ccc(Cn2cccn2)o1)NC12CC3CC(CC(C3)C1)C2
  KCNQ2 enhance = 2; KCNQ2 enhance baseline = 0.56
SMILES: O=C(COC(=O)CNC(=O)c1ccccc1)Nc1ccc2c(c1)OCO2
  KCNQ2 enhance = 0.09; KCNQ2 enhance baseline = 0.1

Further records follow.
SMILES | KCNQ2 enhance | KCNQ2 enhance baseline
COc1cc(OC)nc(Oc2ccc(NC(C)=O)cc2)n1 | 0.52 | 1.4
CC(C)N1C(=O)NC2(c3ccccc3)N(C)C(=O)N(C)C12c1ccccc1 (centres undefined) | 0.1 | -0.97
CCSC1=NCCN1S(=O)(=O)c1ccc(Cl)cc1 | 0.1 | 0.09
Cc1cc(C)c(OCC(=O)OCC(=O)N2c3ccccc3CC2C)c(C)c1 (centres undefined) | 0.22 | 0.04
CCCNc1nc(C)cc(-c2cc(-c3ccccc3)on2)n1 | 0.66 | 0.02
COC(=O)Nc1ccc(S(=O)(=O)Nc2ccccc2F)cc1 | 0.03 | 0.01
CC(=O)N1CCN=C1SCc1cccc(F)c1 | 0.46 | -0.13
COc1ccc(-c2nc(CSCC(=O)NCc3ccc4c(c3)OCO4)c(C)o2)cc1 | 1.5 | -0.58
COc1ccc(C2=Nn3c(nnc3-c3ccco3)SC2)cc1 | 0.58 | -0.14
CN(CC1COc2ccccc2O1)C(=O)c1cc(COc2c(F)cccc2F)on1 (centres undefined) | 1.3 | -1.6
CCC(C)(C)NC(=O)C(OC(=O)c1ccco1)c1ccccc1F (centres undefined) | 0.58 | -0.02
Cn1c(=O)c2[nH]c(N=NNc3ccccc3F)nc2n(C)c1=O | 0.32 | -0.79
O=C(NCCCN1CCOCC1)c1csc2c1CCCC2 | 0.09 | 0.98
Cc1cc(C)cc(NC(=S)N2CCC(NC(=O)C3CCCCC3)CC2)c1 | 0.24 | -0.03
COc1cccc(NC(=O)CCc2nc(-c3ccccc3F)no2)c1 | 1.8 | -1.2
O=C(NCc1cccnc1)C1CC(c2ccc(F)cc2)=NO1 (centres undefined) | 0.86 | 0.67
CC1(C)OC1COc1c2ccoc2cc2oc(=O)ccc12 (centres undefined) | 0.59 | 1
CCOC(=O)C(C)Oc1cccc2c(=O)n(CC(=O)NCc3ccco3)ccc12 (centres undefined) | 0.11 | 2.1
OC1CCNC(=S)N1c1ccccc1 (centres undefined) | 0.23 | 0.83
COc1ccc(CC(=O)Nc2ccc(-c3nc4cc(C)ccc4o3)c(O)c2)cc1OC | 0.59 | 2.1
CCOc1ccc(CNS(=O)(=O)c2c(C(=O)N3CCCC3)c(C)n(C)c2C)cc1OC | 0.49 | 0.53
CN(C)C(CNC(=S)Nc1cccc(Cl)c1)c1ccccc1 (centres undefined) | 0.32 | -0.59
CN(C)c1cc[n+](CC(=O)Nc2ccc(Cl)cc2)cc1 | 0.14 | 0
Cc1ccc(C)c(N2CCN(C(=O)c3ccc(NC4=NC5CS(=O)(=O)CC5S4)cc3)CC2)c1 (centres undefined) | 0.69 | -1.1
COc1ccc(C(=O)NNC(=O)CSc2nnc(COc3ccccc3OC)n2C)cc1 | 1.7 | -1.3

Arranged by molecular weight (highest first): 3 of the compounds above.
SMILES | KCNQ2 enhance | KCNQ2 enhance baseline
COc1ccc(CC(=O)Nc2ccc(-c3nc4cc(C)ccc4o3)c(O)c2)cc1OC | 0.59 | 2.1
COC(=O)Nc1ccc(S(=O)(=O)Nc2ccccc2F)cc1 | 0.03 | 0.01
COc1cc(OC)nc(Oc2ccc(NC(C)=O)cc2)n1 | 0.52 | 1.4

Remaining list, next part
SMILES | KCNQ2 enhance | KCNQ2 enhance baseline
Cc1n[nH]c(=O)nc1NCCN(C)C | 1.6 | 1
Cn1cc(/C=N\NC(=O)c2cccs2)c2ccccc21 | 0.18 | 0.56
Cn1c(C(=O)NCCCN2CCCCC2)cc2sccc21 | 2 | 0
Fc1ccc(CSc2nc3ncccc3[nH]2)cc1 | 0.74 | 1.2
O=C(c1ccc(Cl)cc1)N1CCCC(C(=O)N2CCCCC2)C1 (centres undefined) | 0.56 | 0.48
O=C(CCN1C(=O)c2ccccc2S1(=O)=O)Nc1ccc(Cl)cc1 | 0.14 | 0.23
CCOC(=O)C1CCN(C(=S)Nc2ccc(CC)cc2)CC1 | 0.89 | -0.5
O=C(CSc1ccc(-c2ccc(F)cc2)nn1)N1CCOCC1 | 0.15 | 2.6
O=C(Nc1ccnn1C1CCN(C(=O)c2ccc(Cl)cc2)CC1)C1CC1 | 0.42 | -0.37
O=C(NCc1cccc(C(F)(F)F)c1)C1CCCN(c2cnccn2)C1 (centres undefined) | 1.3 | 0.86
CCCc1nc(SCC(=O)Nc2nnc(CC)s2)c2c(=O)n(C)c(=O)n(C)c2n1 | 0.06 | -0.08
Cn1c(=O)[nH]c(=O)c2c1nc(N1CCCCC1)n2CCCSc1nnnn1-c1ccccc1 | 0.47 | 0.71
COCCn1c(=N)c(S(=O)(=O)c2ccc(F)cc2)cc2c(=O)n3ccccc3nc21 | 0.05 | -1.4
CCC(C)NCCOCCOc1ccc(C)cc1Br (centres undefined) | 2.1 | 0.1
Cc1ccccc1OCC(=O)Nc1ccc(N2CCN(S(C)(=O)=O)CC2)cc1 | 1 | -1.2
CC(=O)Nc1ccc2[nH]c3ccccc3c2c1 | 1.6 | -0.1
COc1ccc(Oc2nc(C)cc(C)c2S(C)(=O)=O)cc1 | 0.26 | -0.15
CCOCCCNC(=S)NCCCNc1nc2cc3c(cc2cc1C#N)OCO3 | 1.3 | -0.06
O=C1NCCN1C(=O)c1ccco1 | 0.78 | -1.3
C=CCN(CC=C)S(=O)(=O)c1ccc(F)cc1 | 0.68 | -1
COC(=O)c1ccccc1N=Nc1c(C)[nH][nH]c1=O | 0.95 | 0.29
COc1ccc(Cl)cc1-c1nc(N)nc(NC2CCCCC2)n1 | 0.61 | -1.3
CCc1ccccc1NC(=O)C1C2C=CC(O2)C1C(=O)O (centres undefined) | 0.21 | 0.48
C=CCNCC(=O)NN=C(c1ccccc1)c1ccccc1 | 1.1 | 0.04
CCCN1CCC(=O)N(CCOc2ccccc2)CC1 | 0.7 | -1.8

(cont.)
SMILES | KCNQ2 enhance | KCNQ2 enhance baseline
COc1ccc2cc(C3(C)NC(=O)NC3=O)ccc2c1 (centres undefined) | 0.38 | 1.2
S=C(c1ccccc1)N1CCN(C(=S)c2ccccc2)CC1 | 0.93 | 1.2
CCOC(=O)c1cc(C(=O)c2cc(Br)ccc2O)coc1=N | 0.84 | -0.33
O=c1cc(CSc2ccccc2)nc(-c2ccccc2)[nH]1 | 0.79 | -1.2
CCN(CC)CCOC(=O)c1ccc(NC(=O)/C=C/c2cccs2)cc1 | 2.1 | -2.4
CC(C)CCNC(=O)NC(=O)COC(=O)CNC(=O)C1CCCCC1 | 0.35 | -1.2
C#CCn1cc(/C=N/Nc2nc3ccccc3[nH]2)c2ccccc21 | 0.12 | -1.1
CN(c1ccccc1)S(=O)(=O)c1nnc(NC(=O)C2CCCCC2)s1 | 0.14 | -1.3
Cc1cc(C(=O)OCC(=O)Nc2ccc(S(=O)(=O)N3CCOCC3)cc2)c(C)o1 | 0.14 | -0.07
COc1cccc(C(C(=O)NCC2CCCO2)N(C(=O)Cn2nnc3ccccc32)c2ccc(NC(C)=O)cc2)c1OC (centres undefined) | 0.19 | -2.5
O=C(Cc1ccc(NC2=NC3CS(=O)(=O)CC3S2)cc1)N1CCN(c2ccc(F)cc2)CC1 (centres undefined) | 0.02 | -1.5
CCOC(=O)NN1C(=O)c2ccccc2NC1c1ccccc1F (centres undefined) | 0.12 | 0.26
COC(c1ccccc1)c1nnc(CCC(=O)N2CCCCCCC2)o1 (centres undefined) | 2.3 | -1.2
CC1(C)Cc2c(sc3c2C2=NCCN2C=N3)CO1 | 0.83 | 0.35
CC(C)OCCCNC(=O)CCSc1ccc(Cl)cc1 | 0.6 | 0.5
COc1ccc(S(=O)(=O)N2CCC(C(=O)NCCN3CCOCC3)CC2)cc1C | 0.86 | 1
Cc1c(C(=O)N2CCOCC2)sc(NC(=O)c2ccccc2F)c1C#N | 0.19 | 1.6

Screens: PubChem BioAssay, Johns Hopkins Ion Channel Center
